Source: PubChem BioAssay (several laboratories)
HSV augment: increases HSV replication in cells; HSV replication augmentation in cells, fold increase; maximum fold increase; 220,000 tested, 0.005% active; AID 1956;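 active = peak rise of 1.5-fold or more in the series; tested in PC3 cells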;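 also: first round at 10 µM; read as green reporter fluorescence; hits show the peak of a series up to 25 µM; 1 = signal of infected wells without compound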
PKD1 kinase inh: inhibitors of human PKD1 kinase | inhibition, %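 (about 10 µM by stock and volumes)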 | Q15139 | PKD1 kinase fluorescence polarization assay | 200,000 tested, 0.056% active;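 active = inhibition of 50% or more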;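 also: controls were vehicle for no effect and a reference inhibitor for full effect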
Insulin prom inh: TRM-6 insulin promoter activity inhibition; TRM-6 cells (human fetal islet line), insulin promoter-eGFP reporter, imaging; reporter expression induced with tamoxifen; inhibition, % at 2 µM; 130,000 tested, 0.9% active; AID 1273;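 active = inhibition above the mean plus 3 SD, with well images judged a real hit on visual review, cut at about 60% in these data, passing the limit was not always enough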
GALR2 ag: agonists of human galanin receptor 2 (GALR2). O43603. GALR2-expressing cells, agonist activation read-out. activation, %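 (tested at 5 µM)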. 140,000 tested, 0.48% active;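 active = above mean plus 3 SD of all compounds, about 5% in these data, not always enough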;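 also: 0% = vehicle buffer wells and 100% = reference agonist at full effect; tested in CHO reporter cells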
Target sequence (O43603 whole entry, looked up): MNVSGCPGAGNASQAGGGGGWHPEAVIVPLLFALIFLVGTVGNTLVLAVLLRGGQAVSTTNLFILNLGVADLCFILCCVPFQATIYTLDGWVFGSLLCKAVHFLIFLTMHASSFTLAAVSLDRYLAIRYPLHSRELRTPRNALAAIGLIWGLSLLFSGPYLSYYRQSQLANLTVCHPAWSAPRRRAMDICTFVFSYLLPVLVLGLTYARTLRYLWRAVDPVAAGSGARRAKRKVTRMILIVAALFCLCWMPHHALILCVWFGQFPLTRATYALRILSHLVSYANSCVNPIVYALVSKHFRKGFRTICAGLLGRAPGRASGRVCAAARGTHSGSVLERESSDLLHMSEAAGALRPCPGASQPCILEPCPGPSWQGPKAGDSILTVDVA
RGS16-Gao: modulates binding between human RGS16 and Galphao; O15492+P09471; bead-based flow cytometry RGS16-Galphao binding, fluorescence; actives lie on both sides; binding response (% of control), % at 10 µM; 220,000 tested, 0.38% active;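 active = below 25% or above 175%, edge rows of some plates excepted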;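 also: Galphao activated by GDP with aluminum fluoride before binding; 100% = wells without compound and 0% = beads without RGS; some results beyond the cut were filed as inactive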
Target sequence (O15492 whole entry, looked up): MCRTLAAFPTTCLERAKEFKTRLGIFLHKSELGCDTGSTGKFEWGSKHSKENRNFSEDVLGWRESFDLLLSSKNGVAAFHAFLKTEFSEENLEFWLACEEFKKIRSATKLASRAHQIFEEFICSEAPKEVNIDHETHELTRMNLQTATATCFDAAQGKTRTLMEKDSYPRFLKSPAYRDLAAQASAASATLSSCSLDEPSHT
Target sequence (P09471 whole entry, looked up): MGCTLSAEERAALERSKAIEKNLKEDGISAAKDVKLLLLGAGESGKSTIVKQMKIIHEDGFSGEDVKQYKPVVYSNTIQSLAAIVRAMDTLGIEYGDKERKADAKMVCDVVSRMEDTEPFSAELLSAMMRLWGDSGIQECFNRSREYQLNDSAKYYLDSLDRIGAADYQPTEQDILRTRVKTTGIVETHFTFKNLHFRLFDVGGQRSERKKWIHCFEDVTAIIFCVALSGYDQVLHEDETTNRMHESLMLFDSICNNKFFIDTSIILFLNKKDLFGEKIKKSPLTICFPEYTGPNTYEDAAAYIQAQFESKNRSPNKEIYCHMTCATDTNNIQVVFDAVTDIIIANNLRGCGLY
Insulin prom inh cell count: second read-out of Insulin prom inh, no call of its own (marks repeat the call); normalized cell count, %; measured here: cell count, toxicity; reference of the scale not given here;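 cells exposed to compound for 48 h; stained nuclei by imaging scaled within each plate; lower means fewer cells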
HSV augment primary fold: second read-out of HSV augment, no call of its own (marks repeat the call); fold increase; compound at 10 µM; measured here: primary screen fold increase 10 uM; tested in PC3 cells;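 GFP signal in the first replicate; 1 = infected wells without compound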
An asterisk follows results filed as active; i = inactive; . = not tested or not shown.

item | SMILES | HSV augment | HSV augment primary fold | PKD1 kinase inh | Insulin prom inh
1 | CCCNC(=O)c1cc(-c2ccc(OC)cc2)n(CCCOC)c1C | i | 0.89 | -10 | 33
2 | Nc1nnc(SCC(=O)Nc2sc3c(c2C(=O)c2ccccc2)CCCC3)s1 | i | 0.89 | -4 | 7
3 | COc1cccc(C(=O)NCCCN2CCN(CCCNC(=O)c3cccc(OC)c3)CC2)c1 | i | 0.93 | -2 | -6
4 | Cc1ccc(S(=O)(=O)N2CC3CCC2C3)cc1 (configuration not stated) | i | 1.1 | -3 | .
5 | CCOC(=O)C1(CC2CCCCO2)CCN(S(=O)(=O)c2cccc(F)c2)CC1 (configuration not stated) | i | 1.1 | -6 | .
6 | COCCn1cc(C(=O)c2cc(Br)ccc2O)cc(C#N)c1=O | i | 0.91 | -7 | 40
7 | COc1ccc(CC(=O)NNC(=O)CSc2nc(C)c(C)c(=O)[nH]2)cc1 | i | 1.1 | 3 | .
8 | COc1ccc(-n2c(O)cnc2Nc2nc(C)cc(C)n2)cc1OC | i | 1.1 | -5 | -11
9 | COc1ccc(-n2c(SCC(N)=O)nc3sc4c(c3c2=O)CCC4)cc1 | i | 1.1 | -2 | .
10 | NS(=O)(=O)c1cccc(NC(=O)COC(=O)CN2C(=O)C3CC=CCC3C2=O)c1 (configuration not stated) | i | 0.98 | -3 | -400

item | Insulin prom inh cell count | GALR2 ag | RGS16-Gao
1 | 103 | -2.0 | 106
2 | 105 | -0.5 | 100
3 | 139 | 1.9 | 102
4 | . | -3.1 | 108
5 | . | . | 115
6 | 67 | . | 102
7 | . | . | 102
8 | 110 | -0.3 | 100
9 | . | . | 109
10 | 69 | . | 102

The results go on:
item | SMILES | HSV augment | HSV augment primary fold | PKD1 kinase inh | Insulin prom inh
11 | CCCCN(C(=O)COc1ccc(C)cc1OC)c1c(N)n(CCC)c(=O)[nH]c1=O | i | 1.1 | . | .
12 | Nc1nc(-c2ccccn2)nc(N)c1Cc1ccccc1F | i | 0.85 | -3 | -7
13 | O=C(c1ccc(S(=O)(=O)Cc2cc(F)ccc2F)c([N+](=O)[O-])c1)N1CCCC1 | i | 0.73 | -2 | 0
14 | CC1CN(C(=O)c2ccc(COc3ccc4ccccc4c3)o2)CC(C)O1 (configuration not stated) | i | 0.71 | 4 | -6
15 | O=C(NC(NC1CCS(=O)(=O)C1)C(=O)c1cccs1)c1ccccc1 (configuration not stated) | i | 1.1 | -1 | 33
16 | O=C(CCN1CCC(c2cccs2)=N1)c1cccs1 | i | 1.1 | . | .
17 | COc1ccc(NS(=O)(=O)c2cc(NC(=O)c3cnccn3)ccc2OC)cc1Br | i | 0.91 | 1 | .
18 | Cc1ccc(O)c(C(=O)c2cnc3onc(-c4ccc(F)cc4)c3c2)c1 | i | 0.96 | -3 | -31
19 | c1coc(CNc2c3c(nc4ncnn24)CCC3)c1 | i | 0.98 | -6 | .
20 | Cc1ccc2nc(-c3ccccc3O)c(Nc3ccc4c(c3)OCCO4)n2c1 | i | 0.97 | -7 | 67*

item | Insulin prom inh cell count | GALR2 ag | RGS16-Gao
11 | . | . | 99
12 | 113 | . | 102
13 | 123 | . | 98
14 | 62 | . | 99
15 | 171 | -1.7 | 136
16 | . | . | 112
17 | . | . | 101
18 | 78 | 0.1 | 126
19 | . | -1.0 | 96
20 | 144* | 1.7 | 100

Next section
item | SMILES | HSV augment | HSV augment primary fold | PKD1 kinase inh | Insulin prom inh
21 | CCOc1ccc(-n2c(=O)cc(N3CCN(c4ccc(F)cc4)CC3)[nH]c2=O)cc1 | i | 0.98 | 1 | -16
22 | O=C(Nc1nc(-c2ccc(F)cc2)cs1)c1cnccn1 | i | 0.91 | -10 | .
23 | CCOC(=O)/C(C#N)=C(\N)C(C)C(=O)Nc1ccccn1 (configuration not stated) | i | 1 | -12 | .
24 | COc1ccc(CCN2C(=S)NC3CC2(C)Oc2ccc([N+](=O)[O-])cc23)cc1OC (configuration not stated) | i | 0.66 | -2 | -32
25 | Cc1noc(N)c1C1(O)C(=O)Nc2c(Cl)cc(Cl)cc21 (configuration not stated) | i | 1 | -6 | -82
26 | COCCNS(=O)(=O)c1cccn1-c1ncc(C(F)(F)F)cc1Cl | i | 0.92 | -5 | -10
27 | COc1ccc(CCNS(=O)(=O)c2ccc3c(c2)OCCO3)cc1OC | i | 0.73 | -3 | 4
28 | O=S(=O)(Nc1nc2ccccc2nc1-[n+]1ccccc1)c1ccc(Cl)cc1 | i | 0.87 | -9 | -37
29 | O=[N+]([O-])c1c(Nc2ccccc2O)cc(N2CCOCC2)c2nonc12 | i | 0.85 | . | .
30 | CC(C)CC(=O)c1c[nH]c(C(=O)NCc2cccs2)c1 | i | 1 | 0 | -30

item | Insulin prom inh cell count | GALR2 ag | RGS16-Gao
21 | 128 | -1.5 | 90
22 | . | 2.2 | 51
23 | . | -2.1 | 110
24 | 114 | -1.6 | 110
25 | 47 | . | 105
26 | 51 | 0.0 | 105
27 | 122 | -1.1 | 97
28 | 75 | 0.1 | 107
29 | . | . | 102
30 | 76 | -2.5 | 101

The list goes on:
item | SMILES | HSV augment | HSV augment primary fold | PKD1 kinase inh | Insulin prom inh
31 | CC1(C)Oc2ccc3ccc(=O)oc3c2/C(=C/Nc2ccccn2)C1=O | i | 0.69 | 10 | -185
32 | CCc1nc(SCc2ccc(C(=O)OC)o2)n[nH]1 | i | 0.93 | 2 | .
33 | COC(=O)c1nc(C(=O)OC)c(C(=O)OC)nc1C(=O)OC | i | 0.95 | 6 | 17
34 | Cc1ccc([N+](=O)[O-])cc1NC(=O)CCc1ccccc1 | i | 1 | -1 | .
35 | Cn1c(=O)c2c(nc(CN3CCN(c4ccc(F)cc4)CC3)n2CCN2CCOCC2)n(C)c1=O | i | 0.94 | . | .
36 | CS(=O)(=O)N(CC(=O)Nc1ccccc1C(=O)NCc1ccco1)c1ccccc1F | i | 0.96 | 2 | -29
37 | Nc1nc(SCC(=O)c2cccc([N+](=O)[O-])c2)n[nH]1 | i | 1 | -16 | 0
38 | Cc1cnc(NC(=O)CSc2nnc(-c3ccccc3)n2Cc2ccccc2)s1 | i | 0.98 | -7 | -47
39 | COc1ccc2cc(C3CC(c4ccco4)=NN3S(=O)(=O)c3ccccc3)c(Cl)nc2c1 (configuration not stated) | i | 1 | -5 | 38
40 | Cc1cc(C)c2c(CN3CCOCC3)cc(=O)oc2c1 | i | 0.95 | . | .

item | Insulin prom inh cell count | GALR2 ag | RGS16-Gao
31 | 42 | -0.7 | 100
32 | . | . | 86
33 | 121 | -0.6 | 94
34 | . | . | 89
35 | . | . | 103
36 | 81 | . | 101
37 | 81 | -1.9 | 55
38 | 204 | -0.9 | 99
39 | 128 | -0.2 | 108
40 | . | . | 101

(next part)
item | SMILES | HSV augment | HSV augment primary fold | PKD1 kinase inh | Insulin prom inh
41 | O=C(Nc1ccc(CCC(=O)N2CCCC2)cc1)c1ncn[nH]1 | i | 0.95 | -2 | -10
42 | CC1(C)OC(=O)C(=NNc2ccc(O)cc2)C(=O)O1 | i | 0.98 | -12 | -34
43 | S=C(NCc1ccco1)Nc1ccc(Cl)cc1 | i | 0.97 | 6 | 0
44 | Cc1ccc(NC(=O)c2ccc(-n3cccn3)c([N+](=O)[O-])c2)cc1C | i | 0.97 | -1 | -218
45 | NC(=O)NN=C1C2CCCC1C(c1ccccc1)NC2c1ccccc1 (configuration not stated) | i | 0.99 | . | .
46 | C1CC(CN2CCOCC2)CN(Cc2nc(CC3CC3)no2)C1 (configuration not stated) | i | 0.89 | 5 | .
47 | Cc1[nH]c2ccccc2c1SCC(=O)N1CCOCC1 | i | 0.84 | -1 | 10
48 | O=C(Nc1cnccn1)Nc1cccc(Cl)c1Cl | i | 0.84 | 1 | 7
49 | CCOc1cc(N2CCOCC2)c(OCC)cc1NC(=O)CC12CC3CC(CC(C3)C1)C2 | i | 1 | -1 | 37
50 | COc1ccc2nc3ccccc3nc2c1NC(=O)c1ccc(Cl)cc1 | i | 1.1 | -9 | .

item | Insulin prom inh cell count | GALR2 ag | RGS16-Gao
41 | 107 | 0.2 | 95
42 | 90 | -1.2 | 99
43 | 116 | -1.1 | 84
44 | 168 | -1.8 | 103
45 | . | . | 107
46 | . | . | 96
47 | 134 | -1.0 | 88
48 | 137 | . | 97
49 | 122 | -0.3 | 88
50 | . | -0.8 | 106

Other entries follow.
item | SMILES | HSV augment | HSV augment primary fold | PKD1 kinase inh | Insulin prom inh
51 | Cc1ccc(NC(=O)Nc2cc(-c3ccccc3)nn2C)cc1Cl | i | 0.89 | . | .
52 | c1ccc2c(-c3nc4ncccc4o3)cccc2c1 | . | . | -5 | -55
53 | O=C(Nc1cccc(O)c1)c1ccc(C(=O)c2ccccc2)o1 | i | 0.99 | -3 | .
54 | O=C(O/N=C\c1ccc(N2CCOCC2)c([N+](=O)[O-])c1)c1ccc(F)cc1 | . | . | -10 | .
55 | CCOC(=O)C1=C(Nc2ccc(Br)cc2)CC(C)(O)C(C(=O)OCC)C1c1ccccc1 (configuration not stated) | i | 1 | -3 | -23
56 | Cc1cc(C(=O)CSc2n[nH]c(N)n2)c(C)n1-c1cc(F)ccc1F | i | 1 | -7 | 33
57 | CCOc1nc(NCc2ccco2)nc(Nc2ccccc2F)n1 | i | 1.1 | 5 | -92
58 | N#Cc1cc2c(N)c(C(=O)Nc3ccccc3)sc2nc1N | . | . | 5 | 57
59 | COc1ccc(C)cc1NC(=O)CNC(C)C(=O)Nc1cc(Cl)ccc1Cl (configuration not stated) | i | 0.88 | -1 | -13
60 | CS(=O)(=O)Oc1ccccc1/C=C1/N=C(c2ccc(F)cc2)OC1=O | i | 1.1 | -9 | 57

item | Insulin prom inh cell count | GALR2 ag | RGS16-Gao
51 | . | . | 101
52 | 129 | -2.2 | 99
53 | . | . | 103
54 | . | -3.9 | 100
55 | 69 | -0.5 | 104
56 | 65 | -3.1 | 100
57 | 54 | -0.7 | 103
58 | 53 | 1.9 | 114
59 | 139 | . | 96
60 | 157 | -0.6 | 105

(listing goes on)
item | SMILES | HSV augment | HSV augment primary fold | PKD1 kinase inh | Insulin prom inh
61 | N#Cc1c2nc3ccccc3nc2n2cc(NC(=O)c3ccc(F)cc3)ccc12 | . | . | -1 | -63
62 | c1ccc(-c2ccccc2OCCOCCN2CCNCC2)cc1 | i | 0.99 | -2 | .
63 | COc1ccccc1/C=C/C=N/NC(=O)c1cccs1 | i | 0.89 | . | .
64 | CC(C)(C)c1nnc2cccc(Cl)n12 | i | 0.88 | -5 | .
65 | Cn1nc([N+](=O)[O-])nc1Oc1ccccc1N | i | 0.92 | -4 | 3
66 | O=C(c1ccco1)N1CCN(c2cc(N3CCOCC3)c(F)cc2[N+](=O)[O-])CC1 | i | 0.88 | 0 | 0
67 | COc1ccc(NC(=O)CSc2nc3c(c(-c4cccs4)c2C#N)CN(C)CC3)cc1OC | i | 1.1 | -2 | -60
68 | Cc1cc(C)c(C#N)c(SCC(O)CS(=O)(=O)Cc2ccccc2)n1 (configuration not stated) | i | 1 | -2 | -47

item | Insulin prom inh cell count | GALR2 ag | RGS16-Gao
61 | 163 | 0.1 | 95
62 | . | . | 91
63 | . | . | 97
64 | . | . | 98
65 | 85 | -2.7 | 102
66 | 93 | . | 99
67 | 116 | -0.5 | 90
68 | 159 | 1.9 | 97

In a second layout: results already given
The line under a structure holds: HSV augment, HSV augment primary fold, PKD1 kinase inh, Insulin prom inh, Insulin prom inh cell count, GALR2 ag, RGS16-Gao
#8 COc1ccc(-n2c(O)cnc2Nc2nc(C)cc(C)n2)cc1OC
    i, 1.1, -5, -11, 110, -0.3, 100
#9 COc1ccc(-n2c(SCC(N)=O)nc3sc4c(c3c2=O)CCC4)cc1
    i, 1.1, -2, ., ., ., 109
#10 NS(=O)(=O)c1cccc(NC(=O)COC(=O)CN2C(=O)C3CC=CCC3C2=O)c1 (configuration not stated)
    i, 0.98, -3, -400, 69, ., 102
#11 CCCCN(C(=O)COc1ccc(C)cc1OC)c1c(N)n(CCC)c(=O)[nH]c1=O
    i, 1.1, ., ., ., ., 99
#12 Nc1nc(-c2ccccn2)nc(N)c1Cc1ccccc1F
    i, 0.85, -3, -7, 113, ., 102
#13 O=C(c1ccc(S(=O)(=O)Cc2cc(F)ccc2F)c([N+](=O)[O-])c1)N1CCCC1
    i, 0.73, -2, 0, 123, ., 98
#14 CC1CN(C(=O)c2ccc(COc3ccc4ccccc4c3)o2)CC(C)O1 (configuration not stated)
    i, 0.71, 4, -6, 62, ., 99
#15 O=C(NC(NC1CCS(=O)(=O)C1)C(=O)c1cccs1)c1ccccc1 (configuration not stated)
    i, 1.1, -1, 33, 171, -1.7, 136
#16 O=C(CCN1CCC(c2cccs2)=N1)c1cccs1
    i, 1.1, ., ., ., ., 112
#17 COc1ccc(NS(=O)(=O)c2cc(NC(=O)c3cnccn3)ccc2OC)cc1Br
    i, 0.91, 1, ., ., ., 101
